# Screening results as filed in PubChem.
# MARV entry inh – qHTS for inhibitors of binding or entry into cells for Marburg Virus; Marburg virus pseudotyped entry inhibition, cell reporter; control for the full effect not named in the record; about a third of the inactives were read at about 46 µM; Potency, µM (highest dose often 37.8 µM), for the others: at the highest dose activity change, negative = inhibition, actives largely listed as inhibitors; 300,000 tested, 1.8% active; AID 540276, 2011; active = well fitted inhibition curve with a large enough effect; inconclusive = small, poorly fitted or top-dose-only effect, or effect the other way; inactive = flat fitted curve, though single readings scatter; tested in HEK293 cells; about a fifth of its hits are not listed in these tables; further: on the % scale 0 is the no-effect control and ±100 the full control effect; luciferase read-out
# NS1 function inh – qHTS Assay for Inhibitors of Influenza NS1 Protein Function. S. cerevisiae slowed by influenza A NS1, growth recovery by OD600. Potency, µM (top dose mostly 46.1 µM), inactives show top-dose activity, positive = more growth. 270,000 tested, 0.4% active; active means well fitted rising curve with a large enough effect; inconclusive means small, poorly fitted or top-dose-only effect; inactive means no such curve, though single readings can be large or run the other way; further: nearly all actives have a fitted effect of over 50% in size
#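 Read-out: OD600 growth recovery of NS1-expressing budding yeast. Cells grown overnight at 30C in -URA glucose medium, washed, resuspended and diluted 1:100 in 2% galactose assay medium, pH 6.0. Same strain lacking NS1 served as positive control.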
# Lassa entry inh – qHTS for Inhibitors of binding or entry into cells for Lassa Virus | Lassa virus pseudotype entry inhibition, cell reporter; control for the full effect not named in the record | Potency, µM (top dose mostly 37.9 µM), inactives show top-dose activity change, negative = inhibition, actives largely listed as inhibitors | AID 540256, 2011 | 300,000 tested, 1.2% active; active means well fitted inhibition curve with a large enough effect; inconclusive means small, poorly fitted or top-dose-only effect, or effect the other way; inactive means flat fitted curve, though single readings scatter; tested in HEK293 cells; further: on the % scale 0 is the no-effect control and ±100 the full control effect; nearly all actives have a fitted effect of over 50% in size; luciferase read-out
# SARS PLP yeast – qHTS of Yeast-based Assay for SARS-CoV PLP | Potency, µM (highest dose often 32.9 µM), inactives show top-dose activity, positive = growth rescue | S. cerevisiae expressing SARS-CoV PLpro, growth rescue; control for the full effect not named in the record | 330,000 tested, 0.19% active; active means well fitted rising curve with a large enough effect; inconclusive means small, poorly fitted or top-dose-only effect; inactive means no such curve, though single readings can be large or run the other way; further: 0% is about no effect; nearly all actives have a fitted effect of over 55% in size; growth read by luminescence after 48 h
# RE007 growth inh – qHTS Assay for Inhibitors of the HIV-1 protein Vpr; S. pombe RE007 Vpr strain, BacTiter-Glo ATP luminescence, 24 h; control for the full effect not named in the record; Potency, µM (top dose mostly 92.2 µM), for the others: at the highest dose activity change, negative = less growth; 360,000 tested, 0.21% active; AID 651644, 2012; active = well fitted falling curve with a large enough effect; inconclusive = small, poorly fitted or top-dose-only effect; inactive = no such curve, though single readings can be large or run the other way;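 further: on the % scale 0 is the no-effect control and ±100 the full control effect; nearly all actives have a fitted effect of over 50% in size; the assay follows cell death caused by Vpr and the record does not say whether a fall means rescue or toxicity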
#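 Fission yeast RE007 carrying one integrated HIV-1 vpr copy, seeded at OD 0.01 in PMG+AL medium with 23 nL pinned compound. Grown 24 h at 30 degrees; viability read by BacTiter-Glo luminescence after 5 min.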
# Cruzain inh noDet – qHTS Assay for Promiscuous and Specific Inhibitors of Cruzain (without detergent); Potency, µM, inactives show max response, negative = inhibition, actives largely listed as inhibitors; purified cruzain, Z-FR-AMC fluorescence, no detergent; AID 1476, 2009; 200,000 tested, 2.3% active;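 further: plate controls were enzyme without inhibitor for no effect and buffer without enzyme for full effect; nearly all actives have a fitted effect of over 40% in size; top concentration of the series not given in the record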
# Target sequence (P25779 123-467 limits assumed): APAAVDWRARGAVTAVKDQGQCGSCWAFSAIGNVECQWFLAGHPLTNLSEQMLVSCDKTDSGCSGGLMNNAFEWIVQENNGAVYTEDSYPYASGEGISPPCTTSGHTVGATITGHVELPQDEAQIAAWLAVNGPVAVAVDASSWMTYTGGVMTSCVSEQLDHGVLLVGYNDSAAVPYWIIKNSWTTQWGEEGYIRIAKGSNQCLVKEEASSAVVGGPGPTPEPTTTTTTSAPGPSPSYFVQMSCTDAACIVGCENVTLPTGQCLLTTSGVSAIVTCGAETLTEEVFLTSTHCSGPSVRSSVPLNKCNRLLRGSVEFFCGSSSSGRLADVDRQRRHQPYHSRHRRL
#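 Purified cruzain at 1.5 nM, pre-incubated 15 min with compound at room temperature in 100 mM sodium acetate pH 5.5, 5 mM DTT, 0.00005% Triton X-100. Reaction started with 2 uM Z-FR-AMC; AMC fluorescence increase over 60 s gives rate.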
# Cruzain inh Det – qHTS Assay for Promiscuous and Specific Inhibitors of Cruzain (with detergent) | Cruzipain (Trypanosoma cruzi), P25779 | purified cruzain, Z-FR-AMC fluorescence, 0.01% Triton | Potency, µM, inactives show max response, negative = inhibition, actives largely listed as inhibitors | 200,000 tested, 0.43% active | AID 1478, 2009;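 further: plate controls were neutral wells for no effect and buffer without enzyme for full effect; nearly all actives have a fitted effect of over 40% in size; top concentration of the series not given in the record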
#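 Cysteine protease activity tested under reducing, mildly acidic conditions (100 mM sodium acetate pH 5.5, 5 mM DTT) plus 0.01% Triton X-100. Cruzain 1.5 nM; substrate Z-FR-AMC 2 uM; 15 min compound preincubation at room temperature.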
# StopGo reporter – High Throughput Screening for Foot and Mouth Disease Virus Antivirals | human cells with a luciferase reporter of 2A StopGo recoding; control for the full effect not named in the record | Potency, µM (series often up to 57.9 µM), for the others: top-dose signal change, negative = less light | 410,000 tested, 1.2% active; active = well fitted falling curve with a large enough effect; inconclusive = small, poorly fitted or top-dose-only effect; inactive = no such curve, though single readings can be large or run the other way; tested in HEK293T cells; further: on the % scale 0 is the no-effect control and ±100 the full control effect; nearly all actives have a fitted effect of over 45% in size; luciferase light after 4 h
# Active calls of the source: *; ? = inconclusive; . = not tested or not shown; [ ] = another dose, or the depositor's remark. Unless noted, the call rests on the fitted dose curve; in most records, active means well fitted curve in the direction sought with a large enough effect; inconclusive means small, poorly fitted or top-dose-only effect, or another doubt; inactive means no such curve, though single readings can be large; an effect the other way counts as inactive or inconclusive. Potency means the concentration at half of the fitted maximal effect. Compounds as they come. Share with any hit: about 4.7%.
SMILES,MARV entry inh,NS1 function inh,Lassa entry inh,SARS PLP yeast,RE007 growth inh,Cruzain inh noDet,Cruzain inh Det,StopGo reporter
CCC(C)c1ccc(O)c(N)c1 (stereo not given),?,3%,19%,-9%,6%,-1%,-0.5%,10%
CCN(CC(=O)Nc1ccc(NC(C)=O)cc1)C(=O)CSCc1c(C)noc1C,22%,.,5%,5%,-7%,.,.,-6%
O=c1ccc(Cc2ccc(Cl)cc2)n[nH]1,7%[46.1 µM],2%,21%[46.1 µM],3%,6%,.,.,-8%
COc1ccc(N2CCN(C(=O)c3c(C)oc4ncnc(N5CCCCC5)c34)CC2)cc1,.,.,21%[46.1 µM],.,.,-6%,5.0%,-2%
O=C(NC(=S)Nc1cccnc1)c1ccccc1,?,-4%,.,-5%,10%,.,.,64%[activator]
Cc1ccc(NS(=O)(=O)c2cc(C(=O)OCC(=O)NCC3CCCO3)ccc2C)cc1 (stereo not given),2%[46.1 µM],.,-2%,-1%,14%,.,.,20%
Fc1ccc(N2CN(Cc3cccnc3)CNC2=S)cc1,-7%[14.2 µM],5%,15%,0%,3%,.,.,10%
Cc1noc(C)c1C(=O)Nc1nc2ccc(S(C)(=O)=O)cc2s1,?,10%,?,2%,?,.,.,?
Cc1cc([N+](=O)[O-])nn1CC(=O)N(C)Cc1ccccc1,?,3%,22%,4%,3%,.,.,-16%
C/C(=C\C(=O)N1CCc2ccccc21)C(=O)O,?,14%,9%,-4%,9%,3%,-3.9%,-20%
Cc1c(N2C(=O)CSC23C(=O)Nc2ccccc23)c(=O)n(-c2ccccc2)n1C (stereo not given),-16%,-2%,1%,0%,6%,2%,2.7%,.
CCOc1ccc(Cc2n[nH]c(=S)n2Cc2ccccc2)cc1,.,-1%,.,0%,10%,.,.,?

# The last two compounds of the part above open the next one.
SMILES,MARV entry inh,NS1 function inh,Lassa entry inh,SARS PLP yeast,RE007 growth inh,Cruzain inh noDet,Cruzain inh Det,StopGo reporter
Cc1c(N2C(=O)CSC23C(=O)Nc2ccccc23)c(=O)n(-c2ccccc2)n1C (stereo not given),-16%,-2%,1%,0%,6%,2%,2.7%,.
CCOc1ccc(Cc2n[nH]c(=S)n2Cc2ccccc2)cc1,.,-1%,.,0%,10%,.,.,?
COc1ccc(NC(=S)N/N=C/c2cccn2Cc2ccccc2F)cc1,-20%[46.1 µM],.,-9%,-5%,-11%,.,.,-9%
N#CC(=C(O)COC(=O)c1ccc2c(c1)OCCO2)c1nc2ccccc2[nH]1,5%[46.1 µM],.,-16%[46.1 µM],.,23%,.,.,10%
COc1ccc(CCNC(=O)CCNC(=O)c2ccc(Br)cc2)cc1OC,5%,6%,0%,?,18%,6%,-1.1%,-22%
CCn1cc(C(=O)NCC(OC)OC)c(=O)c2cc(S(=O)(=O)N3CCCC3)ccc21,20%[46.1 µM],-14%,-10%[46.1 µM],-4%,-10%,.,.,-2%
COC(=O)c1c(-c2ccc(Cl)cc2)noc1N1CCN(c2ccc(F)cc2)CC1,.,.,4%[46.1 µM],.,.,-8%,3.9%,?
NC12CC3CC(C1)CC(O)(C3)C2,12%,7%,25%,1%,-1%,-6%,0.7%,-17%
CCOc1ccccc1NC(=O)CCNS(=O)(=O)c1ccc2c(c1)CCN2C(=O)C1CC1,.,.,0%[46.1 µM],.,.,-13%,-2.5%,-1%
CC(=O)Nc1ccccc1NC(=O)C(F)(F)F,-20%,-4%,-4%,3%,-6%,-7%,3.7%,-14%
CCn1cc(C(=O)O)c(=O)c2cc(F)c(N3CCN(C(=S)NC(=O)c4ccccc4C)CC3)cc21,-15%[46.1 µM],6%,11%,0%,-12%,.,.,-21%
CNC(=S)Nc1cccc(C(=O)OC)c1,?,-2%,0%,0%,2%,.,.,68%[activator]
CN(CC(O)CON=C1c2ccccc2-c2ccccc21)S(=O)(=O)c1ccc(Br)cc1 (stereo not given),?,20%,?,-15%,-11%,3%,0.5%,?
O=S(=O)(c1ccc(Br)s1)N1CCN(c2ncccn2)CC1,-2%,-8%,6%,-6%,11%,-7%,3.8%,-15%
COc1ccc(CNC(=O)CCn2cccc2)cc1,28%,9%,2%,1%,-6%,0%,-2.5%,-3%
Cc1ccc(S(=O)(=O)N(Cc2cc3cccc(C)c3[nH]c2=O)c2ccccc2)cc1,?,6%,?,-7%,1%,?,-2.7%,0%
COc1cc(Br)c(CNCCc2ccc3c(c2)OCO3)cc1OC,.,18%,.,-4%,2%,.,.,-10%
Cc1cc(/C=C2/SC(=O)N(CC(=O)N3CCCC3)C2=O)c(C)n1C,10%[46.1 µM],3%,.,-1%,-14%,.,.,34%[activator]
C/C(=N/NS(=O)(=O)c1ccccc1)c1ccc(NC(=O)C(F)(F)F)cc1,-7%,-11%,6%,-12%,4%,4%,-5.0%,12%
NC(=O)CN1CCOCCOCCN(CC(N)=O)CCOCC1,16%,-6%,-10%,1%,-22%,7%,6.9%,.
COc1ccc(N(CC(=O)NCCSc2ccccn2)S(C)(=O)=O)cc1,9%,5%,-10%,6%,-3%,-2%,-5.2%,-1%
O=C(/C=C/c1ccc(Cl)cc1)Nc1ccc(N2CCCCC2)cc1,?,-10%,-12%,3%,5%,?,4.6%,-19%
CCOC(=O)c1c(NC(=O)c2cc3nc(-c4ccc(OC)cc4)cc(C(F)(F)F)n3n2)sc(C)c1C,.,.,-2%[46.1 µM],.,.,4%,1.1%,-12%
CCCCN1C(=S)NC[C@@H]1Cc1cccc2ccccc12,.,-40%,.,-6%,-10%,.,.,24%
Cc1ccc(CNC(=O)CN(C(=O)C2(C)CC(=O)N=C3C=CC=CN32)c2cccc(C)c2C)cc1 (stereo not given),3%[46.1 µM],-8%,-4%,-3%,11%,.,.,6%
COc1ccccc1NC(=O)CCC(=O)OCC(=O)c1ccc(C)c([N+](=O)[O-])c1,-9%[46.1 µM],15%,24%[46.1 µM],-2%,1%,.,.,18%
O=C(COc1cccc2c1CCN(Cc1ccccc1)C2=O)N1CCCCC1,16%,.,-24%,0%,-10%,.,.,-28%
CCOC(=O)C1=C(COC(=O)CCNS(=O)(=O)c2ccc(NC(C)=O)cc2)NC(=O)NC1C (stereo not given),12%[46.1 µM],.,3%,3%,-11%,.,.,-3%
CC(C)CN(CC(C)C)c1nc(N)c(C#N)c(CC#N)c1C#N,?,-4%,?,2%,18%,-16%,-15%,?
Nc1ccc(C(=O)Nc2ccccc2C(=O)O)cc1,21%,1%,8%,-6%,-10%,5%,3.9%,43%[activator]
O=C(CCCCn1c(=O)c2ccccc2n(CC(=O)Nc2cccc(F)c2)c1=O)NCc1ccco1,-1%,-2%,-1%,-2%,-5%,4%,-4.3%,-5%
COc1ccc(NC(=O)c2nc3nc(C)cc(C(F)F)n3n2)c(C)c1,?,.,-4%[46.1 µM],.,.,-4%,-1.3%,6%
COc1cc(CN2CCN(c3ccccc3F)CC2)cc(OC)c1O,-3%,-9%,28%[14.3 µM],-6%,-6%,0%,-1.5%,-5%
CC(C)(C)c1ccc(-c2noc(-c3ccc4c(c3)CCO4)n2)cc1,10%[46.1 µM],2%,14%,-2%,4%,.,.,3%
COc1ccc(-n2c3c(cc(C(=O)NNc4ccccc4C)c2=O)C(=O)CC(C)(C)C3)cc1,?,.,-16%,2%,4%,.,.,-17%
O=C(Cc1ccc(F)cc1)N1CCC(CC2CC(c3cccc(Br)c3)=NO2)(C(=O)NCC2CCCCC2)CC1 (stereo not given),.,6%,.,0%,-6%,.,.,-8%
C=CCn1c(N)cc(=O)nc1SCC(=O)Nc1ccc(C(=O)OC)cc1,-13%,14%,-1%,0%,-12%,.,.,-2%
CCC(C)n1c(SCC(=O)/C(C#N)=C(\C)N)nc2ccccc2c1=O (stereo not given),?,-13%,?,-6%,33%,21%,-5.1%,-26%

# 3 entries already listed, sorted by SMILES length, high to low:
SMILES,MARV entry inh,NS1 function inh,Lassa entry inh,SARS PLP yeast,RE007 growth inh,Cruzain inh noDet,Cruzain inh Det,StopGo reporter
O=C(CCCCn1c(=O)c2ccccc2n(CC(=O)Nc2cccc(F)c2)c1=O)NCc1ccco1,-1%,-2%,-1%,-2%,-5%,4%,-4.3%,-5%
CC(C)CN(CC(C)C)c1nc(N)c(C#N)c(CC#N)c1C#N,?,-4%,?,2%,18%,-16%,-15%,?
COc1cc(CN2CCN(c3ccccc3F)CC2)cc(OC)c1O,-3%,-9%,28%[14.3 µM],-6%,-6%,0%,-1.5%,-5%

# (continued)
SMILES,MARV entry inh,NS1 function inh,Lassa entry inh,SARS PLP yeast,RE007 growth inh,Cruzain inh noDet,Cruzain inh Det,StopGo reporter
COc1ccc(C(=O)/C(C#N)=N/Nc2cccc([N+](=O)[O-])c2)cc1,15µM*,2%,10µM*,-4%,1%,.,.,?
COc1ccc(-c2cc(C(F)F)n3ncc(C(=O)Nc4cccc(S(=O)(=O)N5CCOCC5)c4)c3n2)cc1,?,0%,2%,-1%,0%,.,.,-13%
COc1cc(CNC(=O)c2ccccc2NC(=O)C2=C(C)OCCS2)cc(OC)c1OC,.,1%,.,-1%,1%,.,.,-23%
CCOc1ccc(CCNC(=O)C(CC)n2nc(C)n3c(cc4sccc43)c2=O)cc1OCC (stereo not given),?,-8%,10%,1%,-3%,21%,-1.4%,-23%
Cc1ccc(NS(=O)(=O)c2ccc(C(=O)N3CCN(S(=O)(=O)c4ccccc4)CC3)cc2)cc1,?,.,?,3%,-10%,.,.,-22%
O=C(NNC(=O)c1cccc(Br)c1)C(=O)N1CCCCC1,-12%,-7%,-7%,11%,3%,14%,0.9%,0%
CN(C)/N=C/c1cn(-c2ccccc2)nc1-c1cccnc1,10%[46.1 µM],.,2%[46.1 µM],-5%,-7%,.,.,-12%
S=c1[nH]nc(-c2ccc(Br)cc2)n1Cc1ccccc1,6%[46.1 µM],3%,-5%,0%,15%,.,.,-19%
